Compound activity as filed in PubChem.
PK Bst – alters activity of Bacillus stearothermophilus pyruvate kinase; partly purified Bacillus stearothermophilus pyruvate kinase, luminescence ATP production; ribose 5-phosphate activator present at AC10; Potency, µM; AID 361; actives 1.2% (n = 51,000); in the data active means potency below about 11 µM; inconclusive means mostly about 12 µM to 25 µM; inactive means weaker than that;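 the screen sought inhibitors and activators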;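 also: potency is read from the fitted curve at half-maximal effect; scaled between full activation by ribose 5 phosphate and full inhibition by luteolin; about four in five hits inhibit and the cells do not say which; series up to 57 µM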
TsaE inh – YjeE (TsaE) inhibition, E. coli. Potency, µM. P0AF67. AID 605. purified YjeE, fluorescence polarisation of a bound ADP probe. actives 0.05% (n = 71,000); active = well fitted falling curve; inconclusive = weaker or top-dose-only fall, or a rising curve; inactive = flat or poorly fitted curve;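 also: top concentration of the series not given in the record; excess ADP was the control for the full effect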
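Purified YjeE (10 uM) with BODIPY Texas Red-labeled ADP probe (2 uM); compounds pin-transferred, 15 min at room temperature. Binding inhibition read as decreased fluorescence polarization; ADP titration as control.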
* marks the source's active call; other numbers are inactive results; i = inactive; ? = inconclusive; nt = not tested or not shown. These rows are one share of the data; count on the stated rates, not on these rows.

SMILES	PK Bst	TsaE inh
Cc1ccc(-c2nn(-c3ccccc3)c3[nH]c(=O)c(CNCCN(C)C)cc23)cc1	nt	i
CCC(=O)N1CCc2cc(S(=O)(=O)CCC(=O)Nc3ccc(CC)cc3)ccc21	>57	i
CCN(CC)S(=O)(=O)c1ccc2oc(C(=O)NC(C)C)c(C)c2c1	>57	i
Cn1nc(CC(=O)NCCN2C(=O)CSC2=O)c2ccccc2c1=O	>57	i
Cc1ccc(C(C(=O)NC2CCCCC2)N(CCC(C)C)C(=O)CNC(=O)c2ccco2)o1 (centres undefined)	>57	i
COc1ccc(CN2CCN(C(=O)c3cccnc3)CC2)cc1Br	>57	i
COc1ccccc1N1CCN(C(=O)c2cc(-c3ccco3)on2)CC1	nt	i
Cc1nc(/N=C\N(C)C)sc1C(=O)Nc1ccccc1	nt	i
Cc1ccccc1-c1n[nH]c(=S)o1	>57	i
CCOC(=O)CC(=O)CSc1nnc2sc3ccccc3n12	i	nt
O=C(CCNc1cc(Cl)cc(Cl)c1)c1ccco1	>57	i
COc1ccccc1-n1cnc2cc(C(=O)NCCCN3CCOCC3)ccc21	>57	i
CCC1(C)N(O)C(C)(C)C(c2ccc(OC)cc2)=[N+]1[O-] (centres undefined)	nt	i
Cc1ccc2c(CC(=O)O)coc2c1	nt	i
Cc1noc(C)c1-c1ccc2ncnc(NCc3cccs3)c2c1	nt	?
CCOc1ccc(S(=O)(=O)Nc2cc(Cl)ccc2O)cc1	>57	i
CSc1nc(-c2ccco2)nn1C(=O)Cc1ccccc1	>57	i
C=CCn1c(Cc2nc3ccc(Cl)cc3[nH]2)n[nH]c1=S	>57	i
CC(=O)Nc1nc(C)c(-c2csc(Nc3ccc(O)cc3)n2)s1	i	i
COc1cccc(CSc2nc3sc(C)c(C)c3c(=O)n2Cc2ccco2)c1	>57	i
C[N+](C)(N)Cc1csc(-c2ccc(Cl)cc2)n1	nt	i
COc1ccc(N2CCN(C(=O)CC(NC(N)=O)c3cccc(Oc4ccccc4)c3)CC2)cc1 (centres undefined)	>57	i
Cc1nc2cccc(C(=O)NCc3ccccc3)c2o1	>57	i
C=CCn1c(SCC(=O)NCc2ccco2)nc2sc3c(c2c1=O)CCC3	nt	i
COc1cccc(C2/C(=C(\O)c3c(C)nc4c(C)cccn34)C(=O)C(=O)N2CCCN(C)C)c1 (centres undefined)	>57	i

Further structures follow.
SMILES	PK Bst	TsaE inh
CCCCc1[nH]nc2c1C1(C(=O)N(CC)c3ccccc31)C(C#N)=C(N)O2 (centres undefined)	>57	i
CCOc1ccccc1N(CC(=O)O)S(=O)(=O)c1ccc(C)cc1	i	i
COc1c2c(c3c(c1CCC(=O)O)OC(C)(C)C=C3)OC(C)(C)C=C2	nt	i
Cc1ccc(-c2nnc(SCC(=O)N3CCCc4ccccc43)n2N)cc1	>57	i
CC1CCCC(C)N1C(=O)Nc1cccc(Cl)c1 (centres undefined)	nt	i
Cc1ccc2c(c1)N(Cc1ccc3c(c1)OCO3)C(=O)C(C)O2 (centres undefined)	>57	i
COc1ccc(C2C=C(c3ccc(Br)s3)Nc3ncnn32)cc1OC (centres undefined)	>57	i
Cn1c(SCC(=O)N2c3ccccc3Sc3ccc(Cl)cc32)nnc1-c1ccco1	>57	i
Cc1cccc(N(C(=O)CNC(=O)c2ccco2)C(C(=O)NC2CCCC2)c2cccnc2)c1 (centres undefined)	>57	i
O=C1C2=C(Nc3cc([N+](=O)[O-])ccc3N2)O[C@@H]1c1ccc([C@H]2OC3=C(Nc4ccc([N+](=O)[O-])cc4N3)C2=O)cc1	nt	i
CC(C)(C)n1ncc2c(=O)n(CC(=O)N3CCCc4ccccc43)cnc21	>57	i
CC[N+](CC)(CC)CC[C@](O)(c1ccccc1)C1CCCCC1	nt	i
c1cc(-c2noc(-c3ccc4c(c3)OCO4)n2)ccn1	nt	i
O=C(NCCc1ccc(Cl)cc1)C1CCN(S(=O)(=O)c2cccc3nonc23)CC1	>57	i
COc1ccc(OC)c(CNC(=O)COc2cc(=O)n(C)c3ccccc23)c1	nt	i
Cc1cccc(N(CC(=O)NCc2ccc3c(c2)OCO3)C(=O)CCC(=O)Nc2ccccn2)c1C	?	i
CCc1ccc2[nH]c(=O)c(CN(Cc3ccco3)S(=O)(=O)c3ccc4c(c3)OCCO4)cc2c1	>57	i
O=C(Nc1ccc2ncccc2c1)Nc1ccc2ncccc2c1	nt	i
O=C(NCCCCCNC(=O)c1ccco1)c1ccco1	>57	i
CC(=O)NCC(=O)N(c1c(C)n(C)n(-c2ccccc2)c1=O)C1(C(=O)NC2CCCC2)CCCCC1	>57	i
CC1CCCN(c2nc3c(c(=O)n(C)c(=O)n3C)n2CCSc2nc3ccccc3s2)C1 (centres undefined)	>57	i
N=c1n(CCO)c2ccccc2n1Cc1ccccc1Cl	>57	i
COC(=O)CSc1nnc(-c2ccc(S(=O)(=O)N3CCC(C)CC3)cc2)o1	>57	i
Cc1ccc(C(C(=O)NC2CCCC2)N(Cc2cccnc2)C(=O)c2snc(C(N)=O)c2N)o1 (centres undefined)	>57	i
N[C@@H](CCCP(=O)(O)O)C(=O)O	nt	i

(continued)
SMILES	PK Bst	TsaE inh
Cn1cccc1-c1nc2ccc(NC(=O)c3cccs3)cc2[nH]1	i	i
CCOC(=O)C1CCCN(C(=O)c2ccc3c(c2)NC(=O)C(N2CCOCC2)S3)C1 (centres undefined)	>57	i
CCOC(=O)CNC(=O)CSc1nc2cccnc2n1Cc1ccccc1	>57	i
Cc1cc(NC(=O)C2CC2)ncc1NC(=O)C12CC3CC(CC(C3)C1)C2	>57	i
O=C(Oc1ccc2[nH]cc(CCN3C(=O)c4ccccc4C3=O)c2c1)c1ccco1	>57	i
O=C1C2CCCN2C(c2ccccc2)N1c1nccs1 (centres undefined)	>57	i
O=C(CN1C(=O)NC2(CCCCCC2)C1=O)N1CCC(Cc2ccccc2)CC1	>57	i
CCn1c(N2CCN(C(=O)C34CC5CC(CC(C5)C3)C4)CC2)nc2ccccc21	>57	i
CCN(CCCn1c(=S)[nH]c2ncccc2c1=O)c1ccccc1	>57	i
O=C(CSc1nnc(-c2cccs2)n1-c1ccccc1)N1CCc2ccccc21	>57	i
O=c1cc(N2CCC3(CC2)OCCO3)[nH]c(=O)n1C1CCCCC1	nt	i
Cc1csc2ncc(C(=O)Nc3ccccc3Cl)c(=O)n12	nt	i
Cn1c(Cl)nc2ccccc21	>57	i
COCCn1c(SCc2nc3sc(C(=O)OC)c(C)c3c(=O)[nH]2)nc2ccccc21	>57	i
Cc1ccc(N2CN=c3s/c(=C\c4cccnc4)c(=O)n3C2)cc1	>26	nt
Cc1ccc2c(c1)N(CCCC(=O)NCCCN1CCCC1=O)C(=O)CO2	nt	i
Cc1ccc2c(c1)NC(=O)C(CC(=O)NC1CCCCC1C)O2 (centres undefined)	nt	i
CCCOc1ccc(C2C(C(=O)c3ccco3)=C(O)C(=O)N2CCN2CCOCC2)cc1OC (centres undefined)	>57	i
O=C(O)Cc1cc2ccccc2nc1C(=O)O	nt	i
CCn1nnnc1SCC(=O)Nc1cc(OC)cc(OC)c1	>57	i
COc1cccc2c3c(c(C)nc12)CC(C)O3 (centres undefined)	nt	i
O=C(c1cccc(Cl)c1)N1CCN(C2CCCCCC2)CC1	>57	i
COc1ccc(-c2noc(N(C)CC(=O)Nc3cccc(C(F)(F)F)c3)n2)cc1	i	i
O=C(O)Cc1c[nH]c2ccc(F)cc12	nt	i
COCC(=O)Nc1cccc(C(F)(F)F)c1	>57	i

Whole records, quoted from the list. Order of screens: PK Bst	TsaE inh
Entry for CCOC(=O)C1CCCN(C(=O)c2ccc3c(c2)NC(=O)C(N2CCOCC2)S3)C1 (centres undefined) : >57	i
Entry for CCOC(=O)CNC(=O)CSc1nc2cccnc2n1Cc1ccccc1 : >57	i
Entry for COc1cccc2c3c(c(C)nc12)CC(C)O3 (centres undefined) : nt	i
Entry for Cn1cccc1-c1nc2ccc(NC(=O)c3cccs3)cc2[nH]1 : i	i
Entry for O=C(CN1C(=O)NC2(CCCCCC2)C1=O)N1CCC(Cc2ccccc2)CC1 : >57	i

(cont.)
SMILES	PK Bst	TsaE inh
O=C(Cn1c(=O)c2c(ncn2Cc2ccccc2)n(Cc2ccccc2)c1=O)NC1CC1	>57	i
c1ccc(CCC2=NCCn3cccc32)cc1	>57	i
CCOc1ccccc1NC(=O)C1CC2CCCC(C1)C2=O (centres undefined)	>57	i
CCCCn1c(CCNC(=O)c2cccs2)nc2ccccc21	>57	i
CN(C)c1nc2sc3c(c2c(=O)n1C)CC(C)(C)OC3	>26	nt
CC(C)C(c1nnnn1Cc1ccco1)N1CCN(c2cccc(Cl)c2)CC1 (centres undefined)	>57	i
CC[N+](CC)(CC(=O)Nc1c(C)cccc1C)Cc1ccccc1	nt	i
COc1cccc(NC(=O)c2nc3nc(C)cc(C(F)F)n3n2)c1	nt	i
CCn1cc(C(=O)OCC(=O)N(C)C2CCS(=O)(=O)C2)c(=O)c2ccc(C)nc21 (centres undefined)	>57	i
O=C(NCC(c1ccc(F)cc1)N1CCOCC1)c1ccc(Br)o1 (centres undefined)	>57	i
CCCc1c(CC)c(=N)c2ccccc2n1C	>57	i
CC(=O)/C(=C\c1ccccc1F)C(=O)c1ccccc1	nt	i
CCN1C(=O)C(C(=O)NC(C)c2ccccc2)C2CC1(C)Oc1ccccc12 (centres undefined)	>57	i
CCC(C)(C)C(=O)O[C@H]1C[C@@H](C)C=C2C=C[C@H](C)[C@H](CC[C@@H]3C[C@@H](O)CC(=O)O3)[C@H]21	nt	i
Cc1[nH]c(=O)[nH]c1CN1CCCCC1	>57	i
COc1cc(OC)cc(C(=O)N(Cc2cc3cc(C)ccc3[nH]c2=O)C(C)C)c1	>57	i
CCc1nnc(NC(=O)c2ccc(S(=O)(=O)N(CCOC)CCOC)cc2)o1	>57	i
COc1ccc(CCNc2oc(COc3ccccc3)nc2C#N)cc1	>26	nt
CCN1CCN(C(=O)C(NS(=O)(=O)c2ccc3nc(C)sc3c2)C(C)C)CC1 (centres undefined)	nt	i
COc1cccc(Cn2c(N)c(C#N)c3nc4ccccc4nc32)c1OC	>57	i
CSCCC(N=Cc1c(O)n(-c2ccc(F)cc2)c(=O)[nH]c1=O)C(=O)O (centres undefined)	>57	i
CC(C)CN1C(=O)NC(NC(=O)c2cccs2)(C(F)(F)F)C1=O (centres undefined)	>57	i
Cc1noc2nc(-c3cccs3)cc(-c3nnc4n3CCCCC4)c12	>57	i
CCN1CCN(Cc2c(O)ccc3c(=O)c(-c4ccc(OC)c(OC)c4)c(C)oc23)CC1	>57	i
Cc1cccc(Nc2nnc(SCc3cn4ccsc4n3)s2)c1	>57	i

New compounds follow.
SMILES	PK Bst	TsaE inh
Cn1c(=O)c2c(nc(SCC(=O)N3CCc4ccccc4C3)n2C)n(C)c1=O	>57	i
CCS(=O)(=O)N1CCN(c2cccc(C)c2C)CC1	nt	i
O=C(Nc1ccon1)c1cc2c(s1)CCCC2	>57	i
CCSc1nc2n(n1)C(c1cccc(F)c1)C1=C(CCCC1=O)N2 (centres undefined)	>57	i
O=c1c2cccnc2[nH]c(=S)n1CCCN1CCN(c2ccc(F)cc2)CC1	>57	i
CCOCc1cnc(C)nc1NCC(=O)c1c(C)n(C)c2ccc(OC)cc12	>57	i
COc1cccc(CNC(=O)c2nnn(CC(=O)Nc3ccc(C)c(C)c3)c2N)c1	>57	i
Cc1ccc(-c2csc3nc(C)n(-n4c(C)ccc4C)c(=O)c23)o1	>57	i
CC(C)(C)OC(=O)N1CCN(c2ccc(NC(=O)Cn3nnc(-c4ccccc4)n3)cc2)CC1	>57	i
COCn1c(-c2ccccc2)nc2ccccc21	nt	i
O=C(CN(C(=O)Cn1nnc(-c2ccc(F)cc2)n1)C1CCCC1)NC1CCCC1	>57	i
CCOC(=O)c1cnc(SCC(=O)Nc2ccc3c(c2)OCCO3)nc1N	>57	i
O=P(O)(O)C(O)C(F)(F)C(F)(F)C(F)(F)C(F)F (centres undefined)	>57	i
Cc1ccc(-c2ccccc2NC(=O)C2C3C=CC(C3)C2C(=O)O)o1 (centres undefined)	>26	nt
Cc1cc(OC(=O)N2CCCCC2)cc(C)c1Cl	>57	i
Cc1cc(Nc2ncc(Cl)cc2Cl)n(-c2ccccn2)n1	>57	i
O=C1C=C(NCc2ccco2)CC(c2ccc(Cl)cc2)C1 (centres undefined)	nt	i
Cc1ccn2cc(C(=O)NC3CCN(Cc4ccccc4)CC3)nc2c1	>57	i
CN=C(N)/N=C(\N)Nc1cc2ccccc2c2ccccc12	nt	i
Cc1ccc(-c2c3c(=O)n(C)c(=O)n(C)c3c3nnc4ccccc4n23)cc1	>57	i
CC(C)N(C(=O)COC(=O)c1ccccc1C(=O)N1CCN(c2ccc(F)cc2)CC1)C(C)C	>57	i
CCc1nc(N2CCN(c3nc(C)cc(C)n3)CC2)c2oc3ccccc3c2n1	>57	i
COC(=O)c1ccnc(/C=N/O)c1	>57	i

An excerpt from above in order of molecular weight, low to high.
SMILES	PK Bst	TsaE inh
COCn1c(-c2ccccc2)nc2ccccc21	nt	i
O=C(CCNc1cc(Cl)cc(Cl)c1)c1ccco1	>57	i
Cc1ccc2c(c1)N(CCCC(=O)NCCCN1CCCC1=O)C(=O)CO2	nt	i
CCOC(=O)c1cnc(SCC(=O)Nc2ccc3c(c2)OCCO3)nc1N	>57	i
O=C1C2=C(Nc3cc([N+](=O)[O-])ccc3N2)O[C@@H]1c1ccc([C@H]2OC3=C(Nc4ccc([N+](=O)[O-])cc4N3)C2=O)cc1	nt	i
